Cruzain inh Det: cruzain (T. cruzi) inhibition with detergent; P25779; purified cruzain, Z-FR-AMC fluorescence, 0.01% Triton; Potency, µM, for inactives: max response, negative = inhibition, most hits filed as inhibitors; hit rate 0.43% among 200,000; AID 1478;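 further: plate controls were neutral wells for no effect and buffer without enzyme for full effect; nearly all actives have a fitted effect of over 40% in size; top concentration of the series not given in the record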
Target sequence (P25779 123-467 limits assumed): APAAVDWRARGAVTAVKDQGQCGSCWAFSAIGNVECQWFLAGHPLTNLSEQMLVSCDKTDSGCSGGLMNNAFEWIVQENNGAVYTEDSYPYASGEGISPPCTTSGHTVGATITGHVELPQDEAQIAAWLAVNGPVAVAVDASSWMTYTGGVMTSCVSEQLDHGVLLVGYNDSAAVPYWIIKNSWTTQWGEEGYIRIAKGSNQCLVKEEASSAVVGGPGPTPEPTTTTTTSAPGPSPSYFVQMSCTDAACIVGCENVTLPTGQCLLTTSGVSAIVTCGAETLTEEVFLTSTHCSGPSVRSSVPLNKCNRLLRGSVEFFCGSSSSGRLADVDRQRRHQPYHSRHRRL
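Sodium acetate buffer (100 mM, pH 5.5) containing 5 mM DTT and 0.01% Triton X-100 hosted 1.5 nM cruzain and test compound for 15 min at room temperature. Cleavage of 2 uM Z-FR-AMC was then tracked by fluorescence.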
StopGo reporter: FMDV 2A StopGo reporter, luciferase signal; human cells with a luciferase reporter of 2A StopGo recoding; control for the full effect not named in the record; Potency, µM (top dose mostly 57.9 µM), for inactives: at the top dose signal change, negative = less light; hit rate 1.2% among 410,000; active = well fitted falling curve with a large enough effect; inconclusive = small, poorly fitted or top-dose-only effect; inactive = no such curve, though single readings can be large or run the other way; tested in HEK293T cells; further: on the % scale 0 is the no-effect control and ±100 the full control effect; nearly all actives have a fitted effect of over 45% in size; luciferase light after 4 h
NS1 inh: influenza NS1 inhibition. S. cerevisiae slowed by influenza A NS1, growth recovery by OD600. Potency, µM (titrated, usually from 46.1 µM), without a hit: at the highest dose activity, positive = more growth. hit rate 0.4% among 270,000. AID 2326; active means well fitted rising curve with a large enough effect; inconclusive means small, poorly fitted or top-dose-only effect; inactive means no such curve, though single readings can be large or run the other way; further: nearly all actives have a fitted effect of over 50% in size
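Read-out: OD600 growth recovery of NS1-expressing budding yeast. Cells grown overnight at 30C in -URA glucose medium, washed, resuspended and diluted 1:100 in 2% galactose assay medium, pH 6.0. Same strain lacking NS1 served as positive control.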
MARV entry inh: Marburg virus entry inhibition; Potency, µM (titrated, usually from 37.8 µM), without a hit: top-dose activity change, negative = inhibition, usual class: inhibitors; hit rate 1.8% among 300,000; Marburg virus pseudotyped entry inhibition, cell reporter; control for the full effect not named in the record; about a third of the inactives were read at about 46 µM; AID 540276; active = well fitted inhibition curve with a large enough effect; inconclusive = small, poorly fitted or top-dose-only effect, or effect the other way; inactive = flat fitted curve, though single readings scatter; tested in HEK293 cells; about a fifth of its hits are not listed in these tables; further: on the % scale 0 is the no-effect control and ±100 the full control effect; luciferase read-out
RE007 growth inh: less growth of the S. pombe RE007 Vpr strain; S. pombe RE007 Vpr strain, BacTiter-Glo ATP luminescence, 24 h; control for the full effect not named in the record; Potency, µM (doses to about 92.2 µM), inactives show top-dose activity change, negative = less growth; hit rate 0.21% among 360,000; AID 651644; active = well fitted falling curve with a large enough effect; inconclusive = small, poorly fitted or top-dose-only effect; inactive = no such curve, though single readings can be large or run the other way;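 further: on the % scale 0 is the no-effect control and ±100 the full control effect; nearly all actives have a fitted effect of over 50% in size; the assay follows cell death caused by Vpr and the record does not say whether a fall means rescue or toxicity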
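Fission yeast strain RE007, carrying one chromosomally integrated HIV-1 vpr copy, was seeded at OD 0.01 in PMG+AL medium with 23 nL pinned compound. After 24 h at 30 °C and 99% humidity, viability was read by BacTiter-Glo luminescence.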
LASV entry inh: blocks Lassa virus binding to or entry into cells | Lassa virus pseudotype entry inhibition, cell reporter; control for the full effect not named in the record | Potency, µM (highest dose often 37.9 µM), inactives show at the top dose activity change, negative = inhibition, hits mostly inhibitors | hit rate 1.2% among 300,000 | AID 540256; active means well fitted inhibition curve with a large enough effect; inconclusive means small, poorly fitted or top-dose-only effect, or effect the other way; inactive means flat fitted curve, though single readings scatter; tested in HEK293 cells; further: on the % scale 0 is the no-effect control and ±100 the full control effect; nearly all actives have a fitted effect of over 50% in size; luciferase read-out
Cruzain inh noDet: blocks cruzain activity in detergent-free assay. hit rate 2.3% among 200,000. P25779. Potency, µM, inactives show max response, negative = inhibition, usual class: inhibitors. purified cruzain, Z-FR-AMC fluorescence, no detergent. AID 1476;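 further: plate controls were enzyme without inhibitor for no effect and buffer without enzyme for full effect; nearly all actives have a fitted effect of over 40% in size; top concentration of the series not given in the record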
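Detergent-free condition (0.00005% Triton X-100) in acetate buffer pH 5.5 with DTT. 1.5 nM enzyme and compound were pre-mixed 15 min, then 2 uM Z-FR-AMC substrate added; reaction progress from fluorescence change between first and third reads (60 s).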
SARS PLP yeast: blocks SARS-CoV papain-like protease in a yeast assay; S. cerevisiae expressing SARS-CoV PLpro, growth rescue; control for the full effect not named in the record; Potency, µM (doses to about 32.9 µM), inactives show at the top dose activity, positive = growth rescue; hit rate 0.19% among 330,000; AID 485353; active means well fitted rising curve with a large enough effect; inconclusive means small, poorly fitted or top-dose-only effect; inactive means no such curve, though single readings can be large or run the other way; further: 0% is about no effect; nearly all actives have a fitted effect of over 55% in size; growth read by luminescence after 48 h
* = called active by the depositor; ? = inconclusive; / = not tested or not shown; & = joins results of further samples; [ ] = dose if it differs, or a comment. Unless noted, the call rests on the fitted dose curve; in most records, active means well fitted curve in the direction sought with a large enough effect; inconclusive means small, poorly fitted or top-dose-only effect, or another doubt; inactive means no such curve, though single readings can be large; an effect the other way counts as inactive or inconclusive. Potency means the concentration at half of the fitted maximal effect.

SMILES	Cruzain inh Det	StopGo reporter	NS1 inh	MARV entry inh	RE007 growth inh	LASV entry inh	Cruzain inh noDet	SARS PLP yeast
C=CCn1c(=O)c(C(=O)NCCNCC)c(O)c2ccccc21	-4.8%	-24%	-10%	22%	0%	1%	-4%	3%
CCOC(=O)N1CCC(N2Cc3cccc(C(=O)Nc4ccc(OC)c(OC)c4)c3C2=O)CC1	-3.8%	-28%	-74%	/	-10%	/	?	6%
COc1ccc(CCNC(=S)Nc2cccc(C)c2)cc1	-4.3%	-8%	-58%	-1%	-7%	17%	-6%	29%
O=C(O)c1cc(S(=O)(=O)NC(Cc2c[nH]c3ccccc23)C(=O)O)ccc1Cl (configuration not stated)	/	-2%	-2%	/	-9%	/	/	-1%
COC(=O)c1c(NC(=O)CN2CCN(c3ccccc3OC)CC2)c2c(C)cccc2n1C	-2.0%	/	-16%	3%	/	/	?	9%
CC1=C(C(=O)OCc2ccc3c(c2)OCO3)C(c2ccccc2)NC(=O)N1 (configuration not stated)	-3.8%	/	-22%	?	-14%	?	-6%	-6%
CC(=O)Nc1ccc(NC(=O)CSc2nc3ccccc3c(=O)n2CCCN2CCOCC2)cc1	/	7%	/	3%	-12%	8%	/	-5%
COc1ccc(C(=O)c2oc3ccccc3c2NC(=O)COc2ccc(C)cc2)cc1	2.2%	-17%	/	/	/	-8%[46.1 µM]	6%	/
N#CCCN(C(=O)COC(=O)c1cc2ccccc2oc1=O)c1ccccc1	/	-2%	/	?	-14%	0%	/	2%
Cn1c(N)c(C(=O)COC(=O)c2cc(S(=O)(=O)NCc3ccccc3)ccc2O)c(=O)n(C)c1=O	/	39%[activator]	/	4%	-5%	12%	/	/
O=C(O)c1ccc(OCC(O)Cn2c3ccccc3c3ccccc32)cc1 (configuration not stated)	/	22%	-82%	-22%[46.1 µM]	-1%	1%	/	-1%
O=C(CCn1c(=O)c2sccc2n(Cc2cc(=O)n3ccccc3n2)c1=O)NCc1ccco1	-6.8%	0%	6%	-2%&11%	7%	-5%	-3%	0%
Cn1cc([N+](=O)[O-])c(C(=O)N/N=C/c2ccccc2)n1	1.6%	/	-6%	1%	4%	15%	1%	-2%
CCCOc1ccc(C(=O)NCC(C)(C)N2CCOCC2)cc1	/	9%	/	8%[46.1 µM]	?	-26%	/	7%
Cc1cc(C)c(C)c(OCCN2CCOCC2)c1	/	-2%	-1%	/	6%	/	/	-6%
C=CCNC(=S)NCC1COc2ccccc2O1 (configuration not stated)	-3.8%	42%[activator]	-7%	10%	-21%	1%	13%	-11%
COC(CNc1ccc([N+](=O)[O-])c(NCC(OC)OC)c1C#N)OC	/	0%	-2%	-12%[46.1 µM]	-1%	1%[46.1 µM]	/	2%
O=C(CSc1ncccn1)N1CCC(Cc2ccccc2)CC1	/	0%	/	-3%[46.1 µM]	3%	?	/	2%
CN1C(=O)CSC1=NC12CC3CC(CC(C3)C1)C2	-1.8%	-25%	-60%	0%	-29%	-13%	9%	-3%
Cn1c(SC/C=C/c2ccccc2)nnc1-c1cnccn1	5.7%	-24%	-2%	5%	-2%	-3%	-6%	-2%
NC(=O)C1CCN(c2nc(-c3ccccc3)nc3c2oc2ccccc23)CC1	9.3%	/	3%	-11%	10%	-1%	-8%	9%
Cc1ccc(CNC2CCCCC2)s1	/	-12%	7%	4%	-1%	3%	/	1%
Cc1cc(C)nc(SCCC(=O)Nc2ccc(F)cc2)n1	/	0%	/	?	-5%	7%	/	0%
O=C(CCc1ccc(O)cc1)N1C[C@H]2C[C@@H](C1)c1cccc(=O)n1C2	/	-11%	23%	/	0%	/	/	4%
O=C(NCc1ccccn1)c1cn(CCc2ccccc2)nn1	2.2%	-11%	2%	7%[46.1 µM]	-3%	14%	1%	5%
CCCN1Cc2cccc(C(N)=O)c2C1=O	6.0%	-11%	-45%	-17%&-17%	15%	?	-4%	20%
COc1ccccc1C(=O)NNC(=O)c1cccc(Cl)c1	/	11%	4%	/	-5%	/	/	2%
CSc1nc2sc3c(c2c(=O)[nH]1)CCc1ccccc1-3	-0.2%	-11%	-4%	5%[46.1 µM]	-12%	9%[46.1 µM]	2%	1%
O=C(/C=C/c1cn(CC(O)CN2CCCCC2)c2ccccc12)c1ccccc1 (configuration not stated)	/	-6%	0%	?	-4%	?	/	1%
S=c1[nH]nc(-c2ccco2)n1/N=C/c1ccc(Cl)cc1Cl	-2.1%	0%	3%	-3%	-14%	-2%	1%	-15%
CC(C(=O)Nc1ccccc1C(=O)N1CCOCC1)N(c1ccccc1)S(C)(=O)=O (configuration not stated)	0.8%	-15%	3%	0%[46.1 µM]	-2%	-1%	-3%	-3%
CC1CN(C(=O)c2cc3cc(F)ccc3[nH]2)CC(C)O1 (configuration not stated)	/	20%	-1%	/	-9%	/	/	-3%
O=C(NCc1ccc(C(F)(F)F)cc1)C1CC(c2c(Cl)cccc2Cl)=NO1 (configuration not stated)	-5.5%	-15%	1%	/	1%	/	-1%	1%
COc1ccc(C(=O)N/N=C(\C)CC(=O)Nc2ccccn2)cc1OC	/	-1%	4%	?	-4%	-1%	/	3%
CCCC(=O)C1=C(O)C(C(=O)OC)C(C)(C)CC1=Nc1ccncc1 (configuration not stated)	-2.4%	17%	-10%	-19%	-2%	-3%	14%	-5%
COc1ccc(CN2CCCC(C(=O)Nc3cccc(-n4cccn4)c3)C2)cc1 (configuration not stated)	/	-11%	-7%	/	-3%	/	/	-4%
Cc1nc2ccc(NC(=O)c3ccc(Cl)c([N+](=O)[O-])c3)cc2s1	1.0%	17%	-2%	-5%	-4%	14%	-2%	5%
Cc1cccc(N2CCN(C(=O)N3CCOCC3)CC2)c1C	/	-19%	-4%	?	34%	?	/	-1%
COc1ccc(S(=O)(=O)NNC(=O)c2csc(-n3nc(C)cc3C(F)(F)F)n2)cc1	-1.8%	8%	5%	0%	-4%	0%	-7%	4%
Cc1nc(N)[nH]c(=O)c1CCC(=O)OCC(C)C	-1.2%	11%	3%	8%	-8%	11%	-11%	29%
COc1ccccc1-[n+]1c(C)cc(/C=C2\Sc3ccccc3N2C)cc1C	/	4µM*	-117%	/	?	/	/	-23%
CCCCOc1ccc(CNC(=O)c2cccc(NC(=O)N3CCSc4ncccc43)c2)cc1	-11%	22µM*	/	/	/	-15%[46.1 µM]	?	/
O=C(NCC(=O)N1CCN(c2ccccc2)CC1)c1cccs1	/	0%	-5%	/	-10%	/	/	7%
COc1cc(NC(=O)c2ccc(OC)c([N+](=O)[O-])c2)ccc1NC(=O)c1ccco1	/	?	10%	-27%[46.1 µM]	3%	-1%[46.1 µM]	/	1%
COCCn1c(=NC(=O)CSCC(=O)Nc2cc(C)on2)sc2cc(C(=O)OC)ccc21	-6.4%	-7%	-4%	1%&29%	6%	5%&10%	5%	2%
Nn1c(-c2ccc(O)cc2)nnc1-c1ccc(O)cc1	/	2%	1%	/	-4%	/	/	1%
O=C(NCC1CCN(S(=O)(=O)c2ccccc2)CC1)Nc1ccccc1	/	-23%	1%	-31%[46.1 µM]	-1%	?	/	1%
COc1ccccc1N1CCN(C2CCCN(C(=O)Cn3cccn3)C2)CC1 (configuration not stated)	/	0%	5%	10%	5%	-8%	/	-4%
CC(=O)c1cccc(NC(=O)c2cc3ccccn3n2)c1	1.1%	40%[activator]	-117%	/	-13%	/	0%	-14%
COc1ccc(OC)c(C(O)C(C)N)c1 (configuration not stated)	3.8%&5.8%&2.4%	-20%	-23%&-7%	?	-3%	-14%&-3%	3%&10%&11%	-6%
Next part
SMILES	Cruzain inh Det	StopGo reporter	NS1 inh	MARV entry inh	RE007 growth inh	LASV entry inh	Cruzain inh noDet	SARS PLP yeast
O=C(CN1CCNC(=O)C1)NCCc1ccc(Cl)cc1Cl	/	-4%	/	4%[46.1 µM]	9%	6%[46.1 µM]	/	-2%
O=C(Nc1ccc(Cl)cc1)[C@@H]1[C@@H]2C(=O)N(c3cccc(F)c3)C(=O)[C@@H]2[C@H]2C=CC=NN21	/	-24%	11%	26%	-6%	5%	/	1%
Cc1ccc(S(=O)(=O)n2cc(C=O)c3ccccc32)cc1	/	3%	-4%	/	21%	/	/	0%
O=c1[nH]cc(S(=O)(=O)c2ccccc2)[nH]1	/	-20%	/	20%[46.1 µM]	-6%	-22%	/	0%
CCc1nnc(NC(=O)C2CCCN2C(=O)Nc2ccccc2OC)s1 (configuration not stated)	4.4%	-10%	8%	3%	21%	-4%	-1%	5%
CCCC(=O)C1=C(N2CCCCC2)CC(C)(C)C(C(=O)OC)C1=O (configuration not stated)	/	18%	3%	14%[46.1 µM]	13%	11%[46.1 µM]	/	1%
O=C(COCc1cc(-c2ccc3c(c2)OCO3)on1)N1CCN(c2cccc(C(F)(F)F)c2)CC1	/	-28%&0%	-1%	/	0%	-12%[46.1 µM]	/	14%
Cc1ccc(CN2CCN(/N=C/c3cc(Br)ccc3F)CC2)cc1	/	7%	-18%	/	0%	/	/	5%
Cc1ccc2nc(SCC(=O)N3CCC(C)CC3)nc(=O)n2c1	/	3%	/	?	17%	11%	/	4%
O=C(CNC(=O)c1cccc(OC(F)F)c1)OCc1cc(=O)n2cc(Br)ccc2n1	-12%	-12%	3%	14%	-8%	-6%	-10%	-14%
COC(=O)[C@H](CCSC)NC(=O)NCc1cccs1	4.3%	30%[activator]	0%	2%	-2%	7%	2%	-3%
COc1ccc(C(=O)COC(=O)C(C(C)C)N2C(=O)C3C4C=CC(C4)C3C2=O)cc1 (configuration not stated)	-2.5%	-25%	-11%	-6%[46.1 µM]	-19%	1%	4%	5%
O=C(COC(=O)C1(c2ccc(F)cc2)CCCC1)N1CCOCC1	3.6%	11%	3%	5%	-1%	5%	3%	0%
Nc1ccc[n+](Cc2ccccn2)c1	-2.5%	0%	0%	?	-6%	16%	-16%	4%
COc1cc(NC(=O)COc2ccccc2Cl)ccc1NC(=O)c1cccs1	/	0%	-6%	?	-5%	?	/	-4%
CCCCn1c(CNC(=O)c2cccs2)nc2ccccc21	-5.3%	-25%	-7%	/	-2%	/	9%	-2%

Screening results (PubChem)
